SUMO Mot1 rescue – yeast Mot1-301 growth rescue at high temperature, primary screen, SUMOylation pathway inhibitor project, S. cerevisiae, ATP luminescence, 38.5C; growth rescue, % at 18.8 µM; S. cerevisiae Mot1-301 growth rescue; percent above DMSO median, 100 means doubled; 1% of 320,000 active;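 active = every valid replicate shows activation above 250% relative to neutral control wells; inactive = the rest, any valid replicate at or below 250%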;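 also: OY570 slx delta 5 strain wells were the positive control but not used for scaling; some compounds called inactive have numbers as strong as hits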
PfHsp90 yeast 2 – growth inhibition of PfHsp90-expressing yeast, primary screen, antimalarial PfHsp90 inhibitor project, S. cerevisiae, BacTiter-Glo luminescence, single point, set 2. inhibition, % at 9.4 µM. BacTiter-Glo ATP, 48 h; yeast lacking PDR1 and PDR3 efflux regulators. 0.32% of 310,000 active;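 active = every replicate shows inhibition above about 80%, whatever the replicate mean, limit read from the data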;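 also: 0% = DMSO neutral controls and 100% = 20 µM radicicol positive controls; yeast relying on Plasmodium falciparum Hsp90 in place of its own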
Pemphigus Ab inh – inhibitors of pemphigus antibody binding to DSG3, primary screen, biochemical, bead-based, flow cytometry, scFv-GFP; DSG3-coupled beads, scFv-anti-DSG3-GFP binding; stronger effect = lower value; 0.48% of 310,000 active; binding (percent of control), % at 10 µM;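 active = binding more than 3 SD below its plate's average and above zero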;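 also: hits lower antibody fragment binding to DSG3; some compounds called inactive have numbers as strong as hits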
Arr AP2 block – inhibitors of beta-arrestin/AP2 binding, primary screen, biochemical, GPCR trafficking, flow cytometry. beta-arrestin 1 C-terminal peptide binding to AP2 beta2-adaptin appendage (human). FITC-arrestin peptide / GST-AP2 beads; AP2 beta2 appendage carries R879A mutation. inhibition, % at 10 µM. 0.31% of 340,000 active. AID 504490, 2011;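 active = inhibition above a set limit, near 3 SD of compounds lacking own fluorescence, cut at about 54% in these data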;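 also: plate controls were DMSO wells for no effect and 5 µM unlabelled arrestin peptide for full effect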
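System: GST-tagged AP2 beta2-adaptin appendage (R879A) on 4 µm glutathione beads / Reagent: FITC-arrestin peptide, 50 nM / Detection: HyperCyt-sampled flow cytometry, FL1 channel, ex 488/em 535 nm / Timing: 12 min plus 1 h, RT / Buffer or medium: PBS plus Tween 20 (0.05%) and BSA (0.1%)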
* marks the source's active call; other numbers are inactive results; nt = no result given; & = joins results of further samples. Only part of the results is shown; count on the stated rates, not on these rows.

Sample of the layout, 4 compounds:
SMILES	SUMO Mot1 rescue	PfHsp90 yeast 2	Pemphigus Ab inh	Arr AP2 block
C[N+]1(C)CC[C@H](OC(=O)[C@@](O)(c2ccccc2)C2CCCC2)C1	2.6	-27.5	111.7	20.3
CN1[C@@H]2CC(OC(=O)[C@H](CO)c3ccccc3)C[C@H]1[C@@H]1O[C@@H]12 (some centres undefined)	107.7&37.2&5.1&18.1&-4.7	0.2&-3.6&-8.2&11.3	100.4&135.3&103.3	-5.1&-6.3&-3.5&14.0
CCc1cc(C(N)=S)ccn1	6.2	-21.0&1.7	128.0	3.4&-0.2
O=C(c1ccccc1)c1ccccc1	-9.9	-18.7	109.2	-0.2

This part in full (from the top)
SMILES	SUMO Mot1 rescue	PfHsp90 yeast 2	Pemphigus Ab inh	Arr AP2 block
C[N+]1(C)CC[C@H](OC(=O)[C@@](O)(c2ccccc2)C2CCCC2)C1	2.6	-27.5	111.7	20.3
CN1[C@@H]2CC(OC(=O)[C@H](CO)c3ccccc3)C[C@H]1[C@@H]1O[C@@H]12 (some centres undefined)	107.7&37.2&5.1&18.1&-4.7	0.2&-3.6&-8.2&11.3	100.4&135.3&103.3	-5.1&-6.3&-3.5&14.0
CCc1cc(C(N)=S)ccn1	6.2	-21.0&1.7	128.0	3.4&-0.2
O=C(c1ccccc1)c1ccccc1	-9.9	-18.7	109.2	-0.2
On1ccccc1=S	53.3	107.4*	94.1	-2.4
COc1ccc2cc([C@H](C)C(=O)O)ccc2c1	0.6	-34.3	86.2	9.8
Nc1ncn(C2O[C@H](CO)[C@@H](O)[C@H]2O)c(=O)n1 (some centres undefined)	2.7	nt	nt	nt
CNCC(O)c1ccc(O)c(O)c1 (centres undefined)	363.9	-5.7	105.0	3.1
CNC(CC(C)C)C(=O)NC1C(=O)NC(CC(N)=O)C(=O)NC2C(=O)NC3C(=O)NC(C(=O)NC(C(=O)O)c4cc(O)cc(O)c4-c4cc3ccc4O)C(O)c3ccc(c(Cl)c3)Oc3cc2cc(c3OC2OC(CO)C(O)C(O)C2OC2C[C@](C)(N)C(O)C(C)O2)Oc2ccc(cc2Cl)C1O (some centres undefined)	44.0	-6.6	98.8	24.6
Cc1cccc(C)c1OCC(C)N (centres undefined)	312.7	14.5	115.8	-0.2
CN(C)CCOC(c1ccccc1)c1ccccc1 (tested in a mixture with another compound)	274.7	-8.0	113.0	4.4
CNC(CC(C)C)C(=O)NC1C(=O)NC(CC(N)=O)C(=O)NC2C(=O)NC3C(=O)NC(C(=O)NC(C(=O)O)c4cc(O)cc(O)c4-c4cc3ccc4O)C(O)c3ccc(c(Cl)c3)Oc3cc2cc(c3OC2OC(CO)C(O)C(O)C2OC2CC(C)(N)C(O)C(C)O2)Oc2ccc(cc2Cl)C1O (centres undefined)	24.0	-7.8	98.2	-0.8

In the list so far, 3 contain four or more nitrogen atoms:
SMILES	SUMO Mot1 rescue	PfHsp90 yeast 2	Pemphigus Ab inh	Arr AP2 block
Nc1ncn(C2O[C@H](CO)[C@@H](O)[C@H]2O)c(=O)n1 (some centres undefined)	2.7	nt	nt	nt
CNC(CC(C)C)C(=O)NC1C(=O)NC(CC(N)=O)C(=O)NC2C(=O)NC3C(=O)NC(C(=O)NC(C(=O)O)c4cc(O)cc(O)c4-c4cc3ccc4O)C(O)c3ccc(c(Cl)c3)Oc3cc2cc(c3OC2OC(CO)C(O)C(O)C2OC2C[C@](C)(N)C(O)C(C)O2)Oc2ccc(cc2Cl)C1O (some centres undefined)	44.0	-6.6	98.8	24.6
CNC(CC(C)C)C(=O)NC1C(=O)NC(CC(N)=O)C(=O)NC2C(=O)NC3C(=O)NC(C(=O)NC(C(=O)O)c4cc(O)cc(O)c4-c4cc3ccc4O)C(O)c3ccc(c(Cl)c3)Oc3cc2cc(c3OC2OC(CO)C(O)C(O)C2OC2CC(C)(N)C(O)C(C)O2)Oc2ccc(cc2Cl)C1O (centres undefined)	24.0	-7.8	98.2	-0.8
